miR-21 FLuc: qHTS Assay for Modulators of miRNAs and/orActivators of miR-21. 340,000 tested, under 10 active. Potency, µM (titrated, usually from 38.3 µM), for the others: top-dose reporter change, positive = more light. AID 2288, 2010. HeLa miR-21 FLuc reporter, luciferase, 48 h; active = well fitted rising curve with a large enough effect; inconclusive = small, poorly fitted or top-dose-only effect; inactive = no such curve, though single readings can be large or run the other way;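 note: % of control where 0% means no effect; miR-21 action dims this reporter so a rising signal means less miR-21 action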
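Luminescence from a firefly luciferase reporter carrying a miR-21 binding site downstream, stably expressed under a CMV promoter in HeLa cells that make miR-21 endogenously, reports miRNA modulation after 48 h compound exposure up to approximately 40uM final.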
GLA inh pH 4.5: qHTS Assay for Inhibitors of Human alpha-Galactosidase at pH 4.5; Alpha-galactosidase A (Homo sapiens), P06280; purified enzyme, 4-MU-alpha-Gal fluorescence, pH 4.5; activity change, negative = inhibition, % at 105 µM; 230,000 tested, under 10 active; inconclusive = small, poorly fitted or top-dose-only inhibition, or a rising curve; inactive = flat fitted curve, though single readings scatter; no compound was filed as active;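 note: 0% = full activity with enzyme and -100% = basal without enzyme; dose as in the result columns while the protocol names 77 µM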
Rango complex inh: qHTS Assay for Inhibitors of Rango (Ran-regulated importin-beta cargo) - Importin beta complex formation. Importin subunit beta-1 (Homo sapiens), Q14974. Rango CFP/YFP FRET sensor + importin beta, 45 min. Potency, µM (series often up to 92.2 µM), for the others: at the top dose inhibition of complex formation. 340,000 compounds, 0.031% hits. AID 540263, 2011; active = rising FRET ratio curve, often small or poorly fitted; inconclusive = mostly compound fluorescence or quenching in the first reads; inactive = flat curves in all reads;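 note: potency is the fitted concentration of half-maximal effect; 0% = DMSO wells and 100% = buffer wells lacking importin beta; nearly all actives have a fitted effect of over 15% in size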
Target sequence (Q14974 whole entry, looked up): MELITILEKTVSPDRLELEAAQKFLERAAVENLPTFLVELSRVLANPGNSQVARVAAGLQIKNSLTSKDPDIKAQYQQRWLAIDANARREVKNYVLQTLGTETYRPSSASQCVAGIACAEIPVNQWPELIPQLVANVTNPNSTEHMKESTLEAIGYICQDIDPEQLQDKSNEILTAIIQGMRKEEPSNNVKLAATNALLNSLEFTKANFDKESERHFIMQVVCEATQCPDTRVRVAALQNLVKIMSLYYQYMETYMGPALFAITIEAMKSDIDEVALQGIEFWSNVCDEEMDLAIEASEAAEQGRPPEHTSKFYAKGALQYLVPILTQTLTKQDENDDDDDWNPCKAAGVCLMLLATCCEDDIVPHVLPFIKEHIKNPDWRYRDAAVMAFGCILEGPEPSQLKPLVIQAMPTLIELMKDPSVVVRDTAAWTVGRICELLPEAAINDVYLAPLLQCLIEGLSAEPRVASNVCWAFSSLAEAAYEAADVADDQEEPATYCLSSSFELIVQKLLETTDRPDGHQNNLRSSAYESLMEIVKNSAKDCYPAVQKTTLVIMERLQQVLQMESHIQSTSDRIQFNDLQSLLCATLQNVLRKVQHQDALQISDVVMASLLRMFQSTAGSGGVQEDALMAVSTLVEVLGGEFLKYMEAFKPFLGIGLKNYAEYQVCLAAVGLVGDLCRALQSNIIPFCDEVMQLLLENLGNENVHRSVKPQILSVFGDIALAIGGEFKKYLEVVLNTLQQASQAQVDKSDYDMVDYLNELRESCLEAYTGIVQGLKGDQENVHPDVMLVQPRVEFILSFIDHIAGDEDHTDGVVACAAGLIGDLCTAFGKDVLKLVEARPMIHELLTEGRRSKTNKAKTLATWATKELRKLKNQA
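FRET biosensor Rango (snurportin 1 IBB between N-terminal EYFP and C-terminal Cerulean), 50 nM in PBS/1 mM DTT/0.02% Tween-20/0.1% BSA, preincubated 5 min RT with compound; 0.125 microM importin beta added, 45 min RT, CFP/YFP FRET ratio read.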
Rango release inh: qHTS Assay for Inhibitors of RanGTP induced Rango (Ran-regulated importin-beta cargo) - Importin beta complex dissociation; Snurportin-1 (Homo sapiens) + GTP-binding nuclear protein Ran (Homo sapiens) + Importin …; 340,000 compounds, 0.071% hits; Potency, µM (titrated, usually from 46.1 µM), inactives show at the top dose activity change, negative = inhibition; Biochemical FRET Rango-importin beta, RanGTP-induced dissociation; AID 540253, 2011; active means falling FRET ratio curve, often poorly fitted, with flat reads before Ran was added; inconclusive means other falling curves, or compound fluorescence or quenching; inactive means flat or rising ratio curve;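 note: potency is the fitted concentration of half-maximal effect; % of control where 0% means no effect; nearly all actives have a fitted effect of over 45% in size; -100% = wells without RanGTP and RCC1; the record marks most hits as doubtful in a second field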
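Rango (0.1 uM)–importin beta (0.25 uM) complex; RanGTP-RCC1 trigger; 45 min RT; CFP/YFP FRET read.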
An asterisk follows results filed as active; ? = inconclusive; nt = no result given; & = joins results of further samples; [ ] = dose if it differs, or a comment.

entry	smiles	miR-21 FLuc	GLA inh pH 4.5	Rango complex inh	Rango release inh
1	CCCC(=O)Nc1cccc(NC(=O)CN2CCN(c3ccccc3OC)CC2)c1	-3%	9	-3.4%	8%
2	Cc1ccc(NS(=O)(=O)c2c(C(=O)N3CCCCCC3)c(C)n(C)c2C)c(C)c1	0%	nt	6.3%	-19%
3	O=C(O)COn1c(-c2ccccc2)nc2ccc(Cl)cc21	-14%	8	5.3%	6%
4	COc1cccc(C(C(=O)NCC2CCCO2)N(CC2CCCO2)C(=O)CN2C(=O)c3ccccc3S2(=O)=O)c1 (configuration not stated)	0%	6	-0.8%	-2%
5	O=C(Cn1cnc2c(nnn2-c2ccc(F)cc2)c1=O)N1CCCc2ccccc21	1%	-2	1.3%	1%
6	Cc1cccc(NC(=S)N2CCCCC2c2cccnc2)c1C (configuration not stated)	2%	2	-5.3%	18%
7	CC(=O)Nc1ccc(C(=O)OCC(=O)NC2CCCCCCC2)cc1	-5%	-3	-0.4%	-2%
8	O=[N+]([O-])c1cccc(-c2nc3ccccc3s/c2=N/O)c1	-20%	-14	4.2%	22%
9	CN(C)c1ccc(C(=O)Nc2cc(C(F)(F)F)ccc2-n2cncn2)cc1	-2%	1	2.1%	-3%
10	CCOC(=O)N1CCN(C(=O)CCc2ccc(S(=O)(=O)NC(C)(C)C)cc2)CC1	0%	nt	0.0%	5%
11	O=C(NCC(c1cccnc1)N1CCOCC1)c1ccco1 (configuration not stated)	-3%	6	-2.6%	-14%
12	COCCn1c(C)cc(/C=C2/NC(=O)N(c3cccc(Cl)c3)C2=O)c1C	-54%	-29	?	?
13	Cc1nn2c(NCCCN3CCOCC3)c3c(nc2c1-c1ccccc1)CCC3	-7%	-1	0.3%	14%
14	Brc1ccccc1OCCOc1cccc2cccnc12	-62%	-1	0.6%	10%
15	Cc1ccc(NC(=O)COC(=O)C2CC3C=CC2C3)cc1S(=O)(=O)N1CCCCC1 (configuration not stated)	-1%	-8	-3.7%	3%
16	Cc1nc2ccccc2c(C)c1C(=O)c1ccccc1	2%	-1	4.4%	-8%
17	Cc1ccc2nc(SCC(=O)c3c(C)[nH]c4ccccc34)[nH]c2c1	-11%	23	-0.3%	14%
18	CCC(CO)NC1=CC(=O)CCC1 (configuration not stated)	1%	-1	-4.0%	-17%
19	COc1ccc(C(=O)Nc2cc(C)on2)cc1	-14%	4	4.0%	-1%
20	Cc1cc(Cl)ccc1OCC(=O)Nc1nc(-c2cccnc2)cs1	-11%	2	0.0%	-7%
21	COc1cccc(C(C(=O)NCC2CCCO2)N(C(=O)Cn2nnc3ccccc32)c2ccccc2C(C)=O)c1OC (configuration not stated)	-3%	nt	6.7%	-10%
22	COc1ccc(CNC(=S)N2CCN(S(=O)(=O)c3cccc(F)c3)CC2)cc1	2%	0	1.1%	5%
23	CCOC(=O)N1CCN(C(=O)CCCn2c(=S)[nH]c3ccsc3c2=O)CC1	-2%	-1[21.1 µM]	1.8%	-15%
24	Cn1c(=O)[nH]c(=O)c2c1nc(Br)n2Cc1ccccc1F	-6%	-2	-0.4%	-5%
25	CCN(CC)C(=O)CCSc1nnc(-c2ccncc2)o1	-3%	11	-1.3%	0%
26	O=C(NCc1ccccc1)C(c1ccc(F)cc1)N(Cc1cccs1)C(=O)c1cnccn1 (configuration not stated)	3%	3	1.2%	7%
27	Cc1cc(C)c(C)c(OCC(=O)N2CCOCC2)c1	0%	1	-5.3%	-4%
28	COc1ccc(OC)c(N2C(N)=C(C#N)C(c3ccc(OC)c(O)c3)C3=C2CC(C)(C)CC3=O)c1 (configuration not stated)	0%	0	-4.8%	-13%
29	O=C(Oc1ccc2ccccc2c1Br)N1CCCCCC1	-2%	7	-7.4%	-15%
30	COc1ccccc1NC(=O)OCC#CCOC(=O)Nc1ccccc1OC	-3%	-20	1.5%	-20%

An excerpt of these results, with values under each structure.
Results follow in this order: miR-21 FLuc | GLA inh pH 4.5 | Rango complex inh | Rango release inh
28. COc1ccc(OC)c(N2C(N)=C(C#N)C(c3ccc(OC)c(O)c3)C3=C2CC(C)(C)CC3=O)c1 (configuration not stated)
→ 0% | 0 | -4.8% | -13%
29. O=C(Oc1ccc2ccccc2c1Br)N1CCCCCC1
→ -2% | 7 | -7.4% | -15%
30. COc1ccccc1NC(=O)OCC#CCOC(=O)Nc1ccccc1OC
→ -3% | -20 | 1.5% | -20%

Going on with the list.
entry	smiles	miR-21 FLuc	GLA inh pH 4.5	Rango complex inh	Rango release inh
31	COc1ccc(-n2nc(N)c(C(N)=O)n2)cc1	-32%	9	6.4%	15%
32	Cc1ccc(C(=O)COC(=O)C2CC(=O)N(c3nc(-c4ccccc4)cs3)C2)cc1 (configuration not stated)	-5%	1	?	16%
33	COc1ccc(C)cc1NC(=O)CN1CCN(c2ccccc2F)CC1	-2%	-8	3.4%	-11%
34	O=C1c2oc3ccccc3c(=O)c2C(c2cccnc2)N1Cc1ccco1 (configuration not stated)	-7%	0	-0.8%	6%
35	COc1cc(-c2nc3ccccn3c2/N=C/c2cc(OC)c(OC)c(OC)c2)ccc1O	nt	nt	?	?
36	Cc1cc(C)cc(OCC(=O)N(Cc2ccco2)c2c(N)n(Cc3ccccc3)c(=O)[nH]c2=O)c1	nt	nt	-3.1%	5%
37	NC(=O)c1c(NC(NC(=O)c2ccco2)C(=O)c2ccc(Cl)cc2)sc2c1CCCC2 (configuration not stated)	-12%	-3	-1.2%	-20%
38	COc1ccccc1N1CCN(C(=O)C2CCN(C(=O)c3ccccc3Cl)CC2)CC1	6%	nt	-3.0%	2%
39	CCC1(CC)N([O-])C(C)=C(c2ccccc2)[N+]1=O	0%	-6	?	2%
40	Cc1ccc(-c2nnc(-c3cc(C)on3)o2)cc1	-46%	2	-0.2%	-8%
41	CC1(C)CC(=O)N(c2ccc(Cl)c(Cl)c2)C(=O)C1	0%	nt	-0.7%	-20%
42	CC(=O)N1C(c2ccccc2O)C[C@]2(C)CC(=O)NC12 (some centres not stated)	0%	7	0.3%	-1%
43	Cn1ccnc1SCC(=O)c1ccc(Cl)cc1	-48%	3	-2.2%	17%
44	COc1ccc(CNn2c(C)nc3ccccc3c2=O)cc1	5%	9	-4.2%	7%
45	Cn1c(/C=C(\C#N)C(N)=S)ccc1-c1ccc(Br)cc1	-22%	-1	-1.5%	-1%
46	O=C(CSc1nnnn1Cc1ccccc1)Nc1ccccc1	-8%	8	-4.3%	2%
47	Cc1nc2c(C)cccn2c1/C(O)=C1\C(=O)C(=O)N(CCN(C)C)C1c1ccco1 (configuration not stated)	-1%	-3	0.7%	4%
48	Cc1cc(C(=O)N2CCCC(N3CCN(c4ccccc4C)CC3)C2)n(C)n1 (configuration not stated)	1%	nt	1.4%	0%
49	CCOC(=O)CCCNC(=O)CCNC(=O)c1ccc(OC(C)C)cc1	-19%	-20	-1.9%	6%
50	COC(=O)/C(=C/c1ccc2c(c1)c1ccccc1n2C)NC(=O)c1ccccc1	8%	-2	?	?
51	O=C(O)C1C2CCC(C2)C1C(=O)NCCc1ccc(F)cc1 (configuration not stated)	-2%	nt	-2.3%	-20%
52	CSc1ccccc1OCc1cc(C(=O)N(Cc2nccn2C)C(C)C)no1	-12%	nt	-2.3%	5%
53	COc1ccc(N(C(=O)Cn2nnc(-c3ccc(F)cc3)n2)C(C)C(=O)NC2CCCC2)cc1OC (configuration not stated)	0%	nt	0.6%	0%
54	COc1ccc2cc(CN(Cc3ccco3)Cc3nnnn3C3CCCCC3)c(=O)[nH]c2c1	5%	-1	?	-7%
55	CS(C)(=O)=NS(=O)(=O)c1ccc(Cl)cc1	-2%	-19	?	-16%
56	CC(=O)NCC(c1cccs1)S(=O)(=O)c1ccc(F)cc1 (configuration not stated)	-1%	nt	-0.9%	-2%
57	CCOC(=O)CN1C(=O)CN(c2ccc(C)cc2)C1=O	-49%	0	-0.2%	0%
58	COc1cc(OC)cc(C(=O)Nc2ccc(S(=O)(=O)Nc3ncccn3)cc2)c1	-1%&0%	-15	-0.3%	9%
59	CCCn1nc(C(=O)Nc2ccc(S(=O)(=O)Nc3nccs3)cc2)c2ccccc2c1=O	0%	0	-11%	?
60	CC(C)(C)N(Cc1ccccc1)C(=O)c1cccs1	-1%	nt	-0.5%	19%
61	Cn1c(-c2c(N)n(C3CCCC3)c3nc4ccccc4nc23)nc2ccccc21	10%	-29	?	?
62	O=S(=O)(c1ccc(Cl)cc1)N1c2ccccc2Oc2nc3ccccc3nc21	-5%	-2	?	-12%
63	CCOC(=O)C1CCN(S(=O)(=O)c2ccc(CC)cc2)CC1	-2%	-5	-3.1%	15%
64	CCOC(=O)c1[nH]c2ccccc2c1NC(=O)NC(C)C	1%	-2	-0.6%	1%
65	O=C(CSc1nc2[nH]ncc2c(=O)[nH]1)c1ccccc1	-12%	3	-2.4%	-14%
66	Cc1ccc(NC(=O)c2cccc(S(=O)(=O)N3CCN(C)CC3)c2)cc1F	12%	nt	-3.6%	0%
67	O=C(NCC1CCCO1)c1cnn2c(C(F)F)cc(C3CC3)nc12 (configuration not stated)	-19%	nt	-4.7%	1%
68	O=C(c1ccco1)N1CCN(CCOc2ccc(F)cc2)CC1	3%	nt	-0.2%	5%
69	COc1cc(OC)c(OC)cc1/C=N/n1c(C)nnc1C	6%	-2	0.6%	2%
70	O=C(CC1SC(=Nc2ccccc2)N(CCO)C1=O)Nc1ccccc1 (configuration not stated)	-1%	-6	-1.8%	-2%
71	Cc1ccc(C)c(S(=O)(=O)N(C)Cc2cccs2)c1	nt	nt	0.8%	15%
72	CCSc1n[nH]c2nc3c(c(=O)n12)C1(CCCC1)Cc1ccccc1-3	-1%	14	?	-27%
73	O=C(c1cccc(F)c1)n1nnc2ccccc21	2%	-6	-3.0%	10%
74	NC(=O)c1ccc([N+](=O)[O-])cc1SCc1ccccc1	0%	-1	0.3%	-10%
75	CCC(CC)C(=O)c1c[nH]c(C(=O)NCc2ccncc2)c1	3%	0	0.1%	-7%
76	Fc1ccccc1-c1[nH]ncc1-c1nnnn1-c1ccccc1	-1%	?	-1.1%	-14%
77	CCN(CC(=O)Nc1ccc(NC(C)=O)cc1)C(=O)CN1C(=O)C2CCCCC2C1=O (configuration not stated)	nt	nt	-4.3%	11%
78	COc1ccc(CN2CCC(Oc3ccc(C(=O)N4CCCCC4)cc3)CC2)cc1C	5%	nt	5.2%	9%
79	CCCn1c(=O)c2ccccc2n2c(SCC(=O)NCc3cccs3)nnc12	2%	3	8.3%	-11%
80	CCc1cccc(NS(=O)(=O)c2ccc3c(c2)n(C)c(=O)n3C)c1	11%	nt	2.4%	-1%
81	O=C1OCCN1C(=O)[C@H]1[C@H](c2ccc([N+](=O)[O-])cc2)C(c2ccccc2)=NN1c1ccc(Br)cc1	nt	-11	-4.8%	-6%
82	CCc1ccc(-c2nc(SCC(=O)N(CC)C3CCS(=O)(=O)C3)n[nH]2)cc1 (configuration not stated)	nt	nt	-1.0%	?
83	Cc1ccc(-c2csc(NC(=O)c3ccc(Br)cc3)c2C(=O)O)cc1	-9%	nt	-1.9%	-3%
84	O=C(NCc1ccc(F)cc1)N1CCN(S(=O)(=O)c2ccccc2F)CC1	4%	nt	-0.4%	-5%
85	Cc1ccc(-n2c(=O)c3c4c(sc3n(Cc3cc(=O)n5ccccc5n3)c2=O)CCC4)cc1C	-15%&-5%	-6	-3.0%	0%
86	Cc1ccccc1S(=O)(=O)Nc1nc2ccccc2nc1N1CCc2ccccc2C1	-14%	-3	?	2%
87	Cc1cc(Cl)ccc1OCCNC(=S)NC(=O)c1cccnc1	-3%	nt	-0.5%	16%
88	O=C(NNc1nc2c(F)cccc2s1)C1=COCCO1	-2%	-4	?	12%
89	O=C(Nc1ccccc1)c1ccc(S(=O)(=O)N2CCCCC2)cc1	-17%	-4	-1.2%	-13%

Not all compounds are listed, so the mix of outcomes need not match the whole.
